High-throughput results as filed in PubChem BioAssay.
Bead autofluor: counter-screen for toxin protease inhibitors: compound fluorescence; fluorescence intensity (test concentration not listed); compound autofluorescence counterscreen, microsphere flow cytometry; stronger effect = higher value; actives 3.1% (n = 360,000);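 active = at least 3 SD above the mean of all compounds, about 16000 in these data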;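 also: 100 nL of 1 mM stock went into each well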
BJeLR lethal: BJeLR cell viability loss | BJeLR (HRASV12) viability, CellTiter-Glo ATP luminescence, 48 h; reference of the scale not given here | inhibition, % (no concentration beside the values) | actives 0.17% (n = 300,000);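 active = replicate mean above 50%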;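 also: 50 nL library stock added to about 25 µL; numbers are from one replicate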
PrP UTR inh: suppresses PrP 5' UTR mRNA reporter expression; cell-based PrP 5' UTR mRNA reporter, plate reader; inhibition, % (no concentration beside the values); actives 0.35% (n = 340,000);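 active = every replicate at 50% or more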;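 also: 0 = median of the neutral control wells; tested in H4 reporter cells; numbers are from one replicate; inactives centre near -14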
Sa ugtP lethal: kills S. aureus RN4220 lacking UgtP; S. aureus RN4220 ugtP deletion, OD600 growth, 16 h; some inactives read as strong as hits; growth inhibition, % (concentration not given with the values); actives 0.54% (n = 330,000);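 active = z-score under -3 and OD600 up to 0.15 on both plates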;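 also: plate controls were untreated wells for no effect and antibiotic for full effect; wells of about 80 µL received 100 nL stock; the first replicate is given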
Sa RN4220 lethal: kills Staphylococcus aureus RN4220; AID 1259311; S. aureus RN4220 growth, OD600, 16 h; inhibition, % (concentration not given with the values); actives 0.33% (n = 330,000);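 active = z-score of -3 or lower and OD600 up to 0.18 on both plates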;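 also: plate controls were untreated cells for no effect and reference antibiotic for full effect; stock transfer was 100 nL into about 80 µL; one replicate is shown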
Mtb hypoxia inh: Mtb hypoxia fluorescent reporter inhibition. fluorescence inhibition, % (test concentration not listed). actives 0.1% (n = 300,000). M. tuberculosis hypoxia-regulated fluorescent reporter, fluorescence;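 active = 35 to 45% if threefold the growth effect, above 45% if 1.5-fold the growth effect; inactive = the rest, general growth blockers included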;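 also: wells of about 50 µL received 100 nL stock; 0% = vehicle wells and 100% = reference inhibitor wells; whole bacteria with a GFP reporter of the hypoxia response; strong numbers were not always called active; many hits fall short of the cut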
Mtb hypoxia inh growth: second read-out of Mtb hypoxia inh, no call of its own (marks repeat the call); growth inhibition, %; measured here: M. tuberculosis growth (absorbance);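 0% = vehicle and 100% = reference antibiotic; read after six days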
* = called active by the depositor; x = no result given.

SMILES | Bead autofluor | BJeLR lethal | PrP UTR inh | Sa ugtP lethal | Sa RN4220 lethal | Mtb hypoxia inh | Mtb hypoxia inh growth
CCn1c(O)c(N=Nc2ccc3ccccc3n2)c2ccccc21 | 4421 | 16.3 | -78.1 | 24.3 | 1.4 | 0.3 | -0.7
O=[N+]([O-])c1ccc(S(=O)(=O)Nc2ccccn2)cc1 | 2916 | -4.4 | -19.8 | 7.1 | 6.8 | 12.8 | 3.7
OC[C@@H](O)[C@@H](O)CO | 5119 | x | 31.9 | 2.6 | 2.9 | x | x
O=[N+]([O-])c1cccc(S(=O)(=O)NC2CC3CCC2C3)c1 (configuration not stated) | 3546 | -9.0 | -23.9 | 4.1 | 5.7 | 20.1 | 11.3
Cc1ccc(-n2ncc3c(SCC(=O)NNC(=O)C(C)C)ncnc32)cc1 | 3101 | -0.5 | -24.6 | 0.4 | -0.6 | -6.2 | -10.6
CCOC(=O)CSc1nnc(CSc2nc(N)c3c(C)c(C)sc3n2)n1-c1ccccc1 | 2177 | -4.9 | -8.0 | -5.1 | 5.9 | 3.4 | 1.0
Cc1ccc(NC(=O)C2CCCC2)cc1S(=O)(=O)N1CCOCC1 | 2902 | x | -7.5 | -1.5 | 1.1 | -12.2 | -4.0
CN(C)NC(=O)c1ccc([N+](=O)[O-])s1 | 4656 | -6.1 | -0.6 | 6.1 | 11.5 | -4.3 | -5.0
CCOc1ccccc1N/C(=N/c1nc(C)cc(C)n1)NC(=O)Nc1ccc(Cl)c(Cl)c1 | x | -20.5 | x | 12.2 | 12.3 | -6.0 | -5.2
Cc1c(-c2cccc(NC(=O)c3cccs3)c2)nc2ncccn12 | 2060 | -1.5 | -12.2 | -2.4 | 7.6 | 2.6 | -2.6
Cc1nn(-c2ccccc2)c(Cl)c1/C=N/NC(=O)c1ccccc1NS(=O)(=O)c1cccs1 | 1991 | 5.0 | -0.5 | x | x | x | x
COc1ccc(C(C)=O)cc1CSc1ncccn1 | 4240 | 0.6 | -30.9 | 15.6 | 3.6 | 10.1 | 5.4
C#CC(CC)(CC)NC(=O)c1nn(-c2ccccc2Cl)c(C)cc1=O | 3115 | -4.3 | -27.4 | 2.0 | 2.2 | 7.2 | -7.3
CCCn1c(CCC(=O)O)nc2cc(S(=O)(=O)N(CC)CC)ccc21 | 4346 | -0.7 | -12.7 | 1.1 | 3.7 | 9.7 | 7.3
COc1ccc(CCNC(=O)c2ccc3c(c2)N(Cc2ccccc2)CCS3)cc1OC | 4883 | -0.7 | -3.9 | -3.7 | 0.4 | 11.2 | 4.8
CCOC(=O)CNC(=O)CSc1ncnc2c1cnn2-c1ccc(Cl)cc1 | 3184 | -2.4 | -23.0 | 0.0 | 0.1 | x | x
Cc1nnc(NC(=O)c2ccc(C)c(S(=O)(=O)N3CCCCCC3)c2)s1 | 3452 | 2.8 | -6.6 | 18.3 | 6.6 | 8.4 | -4.8
COC(=O)CCC(=O)c1oc2ccc(Cl)cc2c1NC(=O)CCCN1C(=O)c2ccccc2C1=O | 4348 | -1.2 | -11.2 | 1.4 | 0.9 | x | x
COc1ccc(OC)c(S(=O)(=O)Nc2ccc3oc4c(c3c2)C(=O)CCC4)c1 | 10385 | 11.0 | 0.3 | 1.8 | 3.3 | 16.0 | 0.5
CCOc1ccc(C(C#N)N2CCOCC2)cc1OC (configuration not stated) | 3672 | -13.1 | -5.1 | 8.1 | 5.4 | 5.8 | 7.6
COc1ccc(Nc2nc3ccccc3nc2-n2nc(C)cc2C)cc1 | 4546 | 4.7 | -19.0 | 5.1 | -7.8 | x | x
CC(C)CN1CCN(Cc2nc3ccccc3s2)CC1CCO (configuration not stated) | 2536 | -2.0 | -6.5 | 3.8 | 3.8 | 5.5 | 6.4
S=c1[nH]nc(C2CCCCC2)n1/N=C/c1ccccc1 | 3930 | 2.9 | -17.0 | x | x | x | x
Cc1nn(-c2ccccc2)c(C)c1NC(=O)COC(=O)/C=C/c1ccccc1 | 4282 | 13.7 | -22.6 | -3.7 | -0.4 | 1.1 | 2.9
CC(C(=O)Nc1sccc1C(N)=O)N1C(=O)C2CC=CCC2C1=O (configuration not stated) | 4765 | -2.4 | -20.9 | -5.3 | -0.1 | x | x

Gathered by group, those above with a thiophene ring, fused or not.
SMILES | Bead autofluor | BJeLR lethal | PrP UTR inh | Sa ugtP lethal | Sa RN4220 lethal | Mtb hypoxia inh | Mtb hypoxia inh growth
CCOC(=O)CSc1nnc(CSc2nc(N)c3c(C)c(C)sc3n2)n1-c1ccccc1 | 2177 | -4.9 | -8.0 | -5.1 | 5.9 | 3.4 | 1.0
CN(C)NC(=O)c1ccc([N+](=O)[O-])s1 | 4656 | -6.1 | -0.6 | 6.1 | 11.5 | -4.3 | -5.0
Cc1c(-c2cccc(NC(=O)c3cccs3)c2)nc2ncccn12 | 2060 | -1.5 | -12.2 | -2.4 | 7.6 | 2.6 | -2.6
Cc1nn(-c2ccccc2)c(Cl)c1/C=N/NC(=O)c1ccccc1NS(=O)(=O)c1cccs1 | 1991 | 5.0 | -0.5 | x | x | x | x
CC(C(=O)Nc1sccc1C(N)=O)N1C(=O)C2CC=CCC2C1=O (configuration not stated) | 4765 | -2.4 | -20.9 | -5.3 | -0.1 | x | x

The listing picks up, repeating the 2 entries before the break.
SMILES | Bead autofluor | BJeLR lethal | PrP UTR inh | Sa ugtP lethal | Sa RN4220 lethal | Mtb hypoxia inh | Mtb hypoxia inh growth
Cc1nn(-c2ccccc2)c(C)c1NC(=O)COC(=O)/C=C/c1ccccc1 | 4282 | 13.7 | -22.6 | -3.7 | -0.4 | 1.1 | 2.9
CC(C(=O)Nc1sccc1C(N)=O)N1C(=O)C2CC=CCC2C1=O (configuration not stated) | 4765 | -2.4 | -20.9 | -5.3 | -0.1 | x | x
O=C1c2ccc([N+](=O)[O-])cc2C(=O)N1c1c[nH]c(=O)[nH]c1=O | 3316 | -2.0 | -35.2 | -1.9 | 3.7 | 1.0 | 14.6
CCN1CCN(C(=O)c2nn(C)c3c2CS(=O)(=O)c2ccccc2-3)CC1 | 5529 | 5.4 | -14.8 | 11.2 | 2.1 | 3.8 | -3.6
CC1Cc2ccccc2N1S(=O)(=O)c1cccc(C(=O)NCc2ccccn2)c1 (configuration not stated) | 7752 | x | -19.6 | -2.5 | 3.6 | 3.0 | 5.1
C/C(=N\NC(=O)C1CC1)c1ccc2c(c1)OCCO2 | 4236 | -0.9 | -17.2 | x | x | x | x
Fc1ccc(NC(=S)NN=Cc2ccc(F)c(F)c2)c(F)c1 | x | x | x | 1.5 | 0.9 | 16.4 | 5.6
Cc1ccc(S(=O)(=O)N(CC(=O)NCC2CCCO2)C2CCCCC2)cc1 (configuration not stated) | 3351 | 7.8 | 10.6 | -0.2 | -4.7 | -6.2 | 1.1
CC(=O)c1ccc(N2C(=O)NC3(CCCCC3)C2=O)cc1 | 2357 | -2.5 | -12.9 | 10.4 | 0.5 | x | x
Nc1ccc2c(c1)N=[N+]([O-])c1cc(N)ccc1C2 | 4085 | 5.9 | -17.8 | -4.9 | 3.0 | 10.5 | 4.1
COC(=O)C1=C(c2ccccc2)C[C@@H]2CC[C@H]1N2C(=O)NC1CCCCC1 | 2952 | 12.7 | -13.4 | x | x | x | x
Cc1nc(-c2ccccc2)sc1C(=O)/C=C/N(C)C | 4662 | -7.2 | -69.5 | 5.6 | 6.5 | 12.0 | 6.3
Cc1nc(OCc2ccccc2)c2ccccc2n1 | 2667 | -1.4 | -1.5 | 38.3 | 6.1 | x | x
Nc1nnc(COc2cccc(C(F)(F)F)c2)s1 | 5746 | 10.3 | 9.1 | -8.8 | -3.2 | x | x
Cc1cccc(Nc2nc(-c3ccccc3)cs2)n1 | 2958 | 0.0 | -84.3 | 10.0 | -7.3 | 9.3 | -3.0
